High-throughput results deposited in PubChem by National Center for Advancing Translational Sciences (NCATS).
D2 PAM: Beta-Arrestin HTS for Positive Allosteric Modulators of the Human D2 Dopamine Receptor: Potentiators. DiscoveRx D2 beta-arrestin cells, luminescence, 90 min; 100% = 57 uM dopamine signal. potentiation, % (no concentration beside the values). 360,000 tested, 0.23% active; active = potentiation of 50% or more; inconclusive = 30% to 50%; inactive = 30% or less;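 further: compound concentration not given in the record; tested on top of an EC20 dose of dopamine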
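PathHunter beta-arrestin assay in DiscoveRx D2 cells. Compounds were added with an EC20 of dopamine (50 nM final) for 90 min at 37 deg C. Luminescence was read 1 h after detection reagent, with 57 uM dopamine as the EC100 control.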
gsp antag: qHTS for Antagonists of gsp, the Etiologic Mutation Responsible for Fibrous Dysplasia/McCune-Albright Syndrome: qHTS | gsp-mutant cells, cAMP HTRF, 30 min; control for the full effect not named in the record | Potency, µM (highest dose often 76.9 µM), for inactives: top-dose activity change, negative = inhibition, hits mostly inhibitors | 340,000 tested, 0.4% active; active = falling curve of any shape with a large fitted effect; inconclusive = falling curve, mostly with a smaller effect; inactive = flat or rising curve; cell line not stated here;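 further: intracellular cAMP measured with PDE inhibitor Ro 20-1724 present during compound exposure; potency means the concentration at half of the fitted maximal effect; on the % scale 0 is the no-effect control and ±100 the full control effect; nearly all actives have a fitted effect of over 65% in size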
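Cells in G418 medium, seeded 16-24 h, 37C; buffer exchange to DPBS + 1 mM CaCl2, 0.5 mM MgCl2, 0.05% BSA; cpds in DMSO + […] (300 uM stock), 30 min 37C; HTRF cAMP detection.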
Menin-MLL FL inh: qHTS Assay for Inhibitors Targeting the Menin-MLL Interaction in MLL Related Leukemias: Competition With Fluorescein Labeled MLL-derived Peptide. AID 1766, 2009. Fluorescence polarization, fluorescein-MLL peptide displacement from menin. 290,000 tested, under 10 active. FP activity change, % at 61.4 µM; inconclusive = falling polarisation curve, or a change in total fluorescence; inactive = total fluorescence flat and polarisation flat or rising; no compound was filed as active; the % refers to the polarisation; negative = inhibition;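 further: % of control where 0% means no effect; inhibitors lower the polarisation; unlabelled MLL peptide was the positive control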
TRPV1 potentiator: HTS Assay for Compounds that Act as Potentiators of the Vanilloid Receptor 1; potentiation, % at 8.33 µM; 320,000 tested, 0.02% active; TRPV1-expressing cells, Fluo-8 calcium influx, capsaicin EC20 potentiation; host cell line not named in the record; control for the full effect not named in the record; Transient receptor potential cation channel subfamily V member 1 (Homo sapiens), Q8NER1; active means potentiation above 80%; inconclusive means 30% to 80%; inactive means below 30%; further: 0% is about no effect
Target sequence (Q8NER1 whole entry, looked up): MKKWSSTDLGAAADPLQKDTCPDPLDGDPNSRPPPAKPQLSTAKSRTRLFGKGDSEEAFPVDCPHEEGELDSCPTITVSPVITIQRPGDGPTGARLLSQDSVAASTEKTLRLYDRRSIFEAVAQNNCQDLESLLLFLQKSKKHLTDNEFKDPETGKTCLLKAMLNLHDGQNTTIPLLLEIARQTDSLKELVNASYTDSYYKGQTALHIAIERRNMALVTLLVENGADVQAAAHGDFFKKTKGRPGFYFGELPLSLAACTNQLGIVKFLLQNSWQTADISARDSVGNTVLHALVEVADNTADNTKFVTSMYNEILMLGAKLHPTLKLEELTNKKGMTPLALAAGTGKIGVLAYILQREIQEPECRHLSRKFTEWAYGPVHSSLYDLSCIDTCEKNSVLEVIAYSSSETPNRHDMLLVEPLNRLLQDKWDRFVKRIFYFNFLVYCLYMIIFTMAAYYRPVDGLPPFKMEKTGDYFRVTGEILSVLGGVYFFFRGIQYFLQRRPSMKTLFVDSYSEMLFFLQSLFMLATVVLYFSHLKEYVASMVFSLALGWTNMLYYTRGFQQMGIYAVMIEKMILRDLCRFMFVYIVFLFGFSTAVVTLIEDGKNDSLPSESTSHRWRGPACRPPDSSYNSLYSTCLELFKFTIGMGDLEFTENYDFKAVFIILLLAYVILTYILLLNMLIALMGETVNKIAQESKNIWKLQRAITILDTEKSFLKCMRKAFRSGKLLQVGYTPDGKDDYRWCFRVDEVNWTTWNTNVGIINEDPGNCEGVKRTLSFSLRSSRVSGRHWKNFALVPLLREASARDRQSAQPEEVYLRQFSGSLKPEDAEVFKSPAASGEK
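TRPV1-expressing cells were cultured overnight at 35.5C and loaded with Fluo-8 calcium dye for 40 to 90 min at room temperature. After a 10 s baseline, compound was added and calcium influx was read kinetically for 3 min (ex 480/em 520 nm).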
gsp ag: qHTS for Agonist of gsp, the Etiologic Mutation Responsible for Fibrous Dysplasia/McCune-Albright Syndrome: qHTS; gsp mutant cells, cAMP HTRF, 30 min; control for the full effect not named in the record; Potency, µM (series often up to 76.9 µM), for inactives: top-dose activation (cAMP increase), usual class: activators; 340,000 tested, 0.13% active; active = well fitted activation curve with a large enough effect; inconclusive = small, poorly fitted or top-dose-only effect, or another doubt; inactive = no such curve, though single readings can be large or run the other way; cell line not stated here;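 further: phosphodiesterase inhibitor Ro 20-1724 added with compounds to block cAMP breakdown; potency means the concentration at half of the fitted maximal effect; nearly all actives have a fitted effect of over 60% in size; about a fifth of the inactives were tested at one dose only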
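Cells in DMEM/10% FBS with G418 were pretreated with compounds in DMSO plus […] (300 uM stock) for 30 min at 37C. cAMP was measured by HTRF (cAMP-d2 plus anti-cAMP antibody-K) after 30 min at room temperature.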
ClpP mod: qHTS Assay for Activators of ClpP. ATP-dependent Clp protease proteolytic subunit (Bacillus subtilis (strain 168)), P80244. purified B. subtilis ClpP, FRET peptide cleavage, 20 min. Potency, µM (titrated, usually from 57.5 µM), without a hit: top-dose activity change, negative = active. 340,000 tested, 1.9% active. AID 651965, 2013; active = well fitted falling curve with a large enough effect; inconclusive = small, poorly fitted or top-dose-only effect; inactive = no such curve, though single readings can be large or run the other way; further: potency means the concentration at half of the fitted maximal effect; the source files actives as falling curves though it sought activators and does not explain the sign; nearly all actives have a fitted effect of over 65% in size; many hits overshoot -100%
Target sequence (P80244 whole entry, looked up): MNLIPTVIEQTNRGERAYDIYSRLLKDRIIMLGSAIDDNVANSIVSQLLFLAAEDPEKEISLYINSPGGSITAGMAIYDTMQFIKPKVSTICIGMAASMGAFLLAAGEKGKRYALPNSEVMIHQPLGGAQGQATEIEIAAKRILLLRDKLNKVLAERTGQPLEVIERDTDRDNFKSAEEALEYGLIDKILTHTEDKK
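Purified B. subtilis ClpP, 10 microg/mL final in Tris/HCl pH8 with KCl, BSA, glycerol and Tween-20, cleaved an Abz/nitrotyrosine-quenched decapeptide. Fluorescence (ex 320, em 430) was read at 0 and 20 min at room temperature. Delta was normalized to 5.8 microM ADEP and DMSO/no-enzyme controls.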
Sfp inh: qHTS Assay for Inhibitors of Bacillus subtilis Sfp phosphopantetheinyl transferase (PPTase). 4'-phosphopantetheinyl transferase ffp (Bacillus subtilis), Q9F4F7. Biochemical Sfp PPTase activity, qHTS. Potency, µM, for the others: max response, negative = inhibition, actives largely listed as inhibitors. 310,000 tested, 3.5% active. AID 1490, 2009; active means well fitted inhibition curve with a large enough effect; inconclusive means small, poorly fitted or top-dose-only effect, or another doubt; inactive means no such curve, though single readings can be large or run the other way;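 further: the enzyme is Sfp with the accession as filed and its product quenches rhodamine fluorescence; potency means the concentration at half of the fitted maximal effect; 0% = enzyme reaction without inhibitor and -100% = no enzyme wells; top concentration of the series not given in the record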
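Fluorescence-quenching assay: 15 nM Sfp-PPTase preincubated 15 min at room temperature with compound, then 5 uM rhodamine-CoA and 12.5 uM BHQ-2-labelled YbbR peptide added. Fluorescence (ex 525/em 598 nm) read at start and after 30 min; difference gives rate.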
An asterisk follows results filed as active; [ ] = remark or other dose. Rows are unselected (roughly 5.1% active in at least one column).

Results for Cc1ccc(C(=O)COC(=O)c2cc(Cl)nc3ccccc23)cc1 ?
D2 PAM: -23.8; gsp antag: 9.8%; Menin-MLL FL inh: 1.3; TRPV1 potentiator: -9.3; gsp ag: -65.7%[inhibitor]; ClpP mod: 0.1%; Sfp inh: 15.6%

How did CN1CCN(C(=O)C2CCCN(S(=O)(=O)c3ccc(Br)cc3)C2)CC1 (stereo unspecified) do in these assays?
D2 PAM: -28.2; gsp antag: 10.3%; TRPV1 potentiator: 5.2; gsp ag: -4.0%[15.4 µM]; ClpP mod: -1.3%; Sfp inh: 14.6%

What do the screens show for `O=C(CN1CCCCC1)Nc1cc(S(=O)(=O)N2CCOCC2)ccc1N1CCCC1`?
D2 PAM: -4.8; gsp antag: 1.5%; TRPV1 potentiator: 0.2; gsp ag: 25.2%; ClpP mod: -1.3%

What do the screens show for `O=C(COC(=O)c1cccc(S(=O)(=O)N2CCCC2)c1)Nc1ccccc1C(F)(F)F`?
D2 PAM: 2.3; gsp antag: -1.6%; TRPV1 potentiator: -3.3; gsp ag: 11.6%[15.4 µM]

How did Cc1ccc(CSCC(=O)N/N=C/c2cccc(OC3CSC3)c2)cc1 do in these assays?
D2 PAM: -8.5; gsp antag: 4.0%; Menin-MLL FL inh: 1.5; TRPV1 potentiator: -1.2; gsp ag: -120.5%[inhibitor]; ClpP mod: -2.1%; Sfp inh: inconclusive

Results for O=C1C=C(/C=C/c2ccccc2)C[C@@H](c2ccc3c(c2)OCO3)C1 ?
D2 PAM: -6.5; gsp antag: -17.2%; TRPV1 potentiator: 1.3; ClpP mod: -6.5%

Results for O=C(O)c1ccc(CNC(=O)c2ccc(S(=O)(=O)N3CCCCC3)cc2)cc1 ?
D2 PAM: 0.2; gsp antag: -16.8%; TRPV1 potentiator: 6.6; gsp ag: 26.6%; ClpP mod: -1.3%

Results for COc1cccc(N2CC(C(=O)Nc3nnc(SCC(=O)c4ccccc4)s3)CC2=O)c1 (stereo unspecified) ?
D2 PAM: -12.9; gsp antag: -4.7%; Menin-MLL FL inh: 5.2; TRPV1 potentiator: 6.0; gsp ag: 8.5%; ClpP mod: -18.0%; Sfp inh: 79.4µM*

What do the screens show for `CC(c1nnc(SCC(=O)N2CC(=O)Nc3ccccc32)n1Cc1ccccc1)N(C)C` (stereo unspecified)?
D2 PAM: -11.2; gsp antag: -6.8%; Menin-MLL FL inh: 4.0; TRPV1 potentiator: 7.8; gsp ag: -7.5%; ClpP mod: 1.6%; Sfp inh: 12.0%

What do the screens show for `Cc1cc(C(F)F)nn1CC(=O)NCc1ccccc1F`?
D2 PAM: -12.3; gsp antag: 2.7%; Menin-MLL FL inh: -2.0; TRPV1 potentiator: -6.8; gsp ag: 28.7%; ClpP mod: -1.9%; Sfp inh: 11.0%

Results for O=C(Cn1cnc2ccccc21)Nc1cc(C(F)(F)F)ccc1N1CCOCC1 ?
D2 PAM: 3.8; gsp antag: 8.8%; Menin-MLL FL inh: 0.1; TRPV1 potentiator: -12.7; gsp ag: 17.8%; ClpP mod: 1.3%; Sfp inh: 12.8%

How did O=Cc1c(NCCN2CCCC2)c2ccccc2[nH]c1=O do in these assays?
D2 PAM: 5.2; gsp antag: 10.7%; Menin-MLL FL inh: -1.6; TRPV1 potentiator: -6.3; gsp ag: 0.4%[15.4 µM]; ClpP mod: -0.7%; Sfp inh: 2.5%

How did CNC(=O)/C(C#N)=C\c1ccc(CNS(=O)(=O)c2ccc(Cl)cc2)o1 do in these assays?
D2 PAM: -2.7; gsp antag: 2.3%; Menin-MLL FL inh: -5.0; TRPV1 potentiator: -7.1; gsp ag: 5.6%[15.4 µM]; Sfp inh: 0.4%

What do the screens show for `O=C1CC(c2ccccc2)CC(=O)C1=CN1CCCC1` (stereo unspecified)?
D2 PAM: -5.3; gsp antag: 4.1%; Menin-MLL FL inh: inconclusive; TRPV1 potentiator: -15.3; gsp ag: 19.5%; Sfp inh: -3.6%

What do the screens show for `O=C(CCCCn1c(=O)c2ccccc2n(CC(=O)Nc2ccc(F)cc2)c1=O)NCc1ccco1`?
D2 PAM: -2.5; gsp antag: 2.4%; Menin-MLL FL inh: 0.9; TRPV1 potentiator: 10.9; gsp ag: -31.3%[inhibitor]; ClpP mod: -9.6%; Sfp inh: 11.6%

Results for COc1cc(-c2cc(O)c(-c3ccc4ccccc4n3)c(=O)[nH]2)cc(OC)c1OC ?
D2 PAM: -13.8; gsp antag: 0.2%; gsp ag: -7.8%; ClpP mod: -4.2%

How did CC12CCCC(=O)C1CCC(=Cc1ccco1)C2=O (stereo unspecified) do in these assays?
D2 PAM: -12.8; gsp ag: 10.4%; ClpP mod: -1.1%

Results for COc1cc(C(=O)Nc2cc(C)ccn2)ccc1OCC(=O)N1CCOCC1 ?
D2 PAM: 8.7; gsp antag: 6.3%; TRPV1 potentiator: 10.9; gsp ag: 8.1%[15.4 µM]; ClpP mod: -0.6%; Sfp inh: 16.8%

Results for O=C(Nc1ccc2c(c1)OCO2)C1Cc2ccccc2CN1S(=O)(=O)c1cccs1 (stereo unspecified) ?
D2 PAM: -9.6; gsp antag: -10.8%; Menin-MLL FL inh: 5.9; TRPV1 potentiator: 0.5; gsp ag: -0.9%; ClpP mod: -1.1%; Sfp inh: -0.5%

What do the screens show for `C[C@@]12C(=O)N(CC3CC3)CC(=O)N1[C@H](C1CC1)[C@@H]1C(=O)N(c3ccccc3)C(=O)[C@@H]12`?
D2 PAM: -3.6; gsp antag: 2.6%; Menin-MLL FL inh: 4.8; TRPV1 potentiator: -18.8; ClpP mod: 1.0%; Sfp inh: 15.1%

How did COc1ccc(Cl)cc1C(=O)OCC(=O)Nc1cccnc1Cl do in these assays?
D2 PAM: -11.8; gsp antag: -6.5%; TRPV1 potentiator: -11.6; gsp ag: -8.5%; ClpP mod: inconclusive

What do the screens show for `O=C(Cc1ccccc1)Nc1ccc(NC(=O)C2CC2)nc1`?
D2 PAM: -9.9; gsp antag: 12.9%; Menin-MLL FL inh: 1.3; TRPV1 potentiator: -6.4; gsp ag: 8.0%; ClpP mod: 0.1%; Sfp inh: 23.0%

Results for O=c1cc(C(F)(F)C(F)F)oc2ccccc12 ?
D2 PAM: -12.0; gsp antag: 3.0%; Menin-MLL FL inh: 0.0; TRPV1 potentiator: -1.0; gsp ag: 23.1%; ClpP mod: -1.1%; Sfp inh: 0.6%

How did COc1ccccc1N1CCN(C(=O)C2CCN(C(=O)c3cccc(Cl)c3)CC2)CC1 do in these assays?
D2 PAM: -4.0; gsp antag: -12.8%; Menin-MLL FL inh: 4.3; TRPV1 potentiator: -1.3; gsp ag: 2.3%; Sfp inh: 17.1%

What do the screens show for `Cc1cc(C)c(/C=N/n2c(C)cc(C)c(C#N)c2=O)c(C)c1`?
D2 PAM: -13.5; gsp antag: 1.5%; Menin-MLL FL inh: 6.0; TRPV1 potentiator: 1.9; gsp ag: -37.9%[inhibitor]; ClpP mod: 1.5%; Sfp inh: -5.6%

Results for CN(CC(=O)Nc1ccccc1Br)CC(=O)Nc1ccccc1-c1ccccc1 ?
D2 PAM: -3.2; gsp antag: -17.5%; TRPV1 potentiator: -15.6; gsp ag: 9.2%; ClpP mod: -1.6%

How did COc1ccc(NC(=O)c2cc(-c3ccc4c(c3)OCO4)on2)cc1OC do in these assays?
D2 PAM: -0.2; gsp antag: -6.3%; Menin-MLL FL inh: -6.9; TRPV1 potentiator: 0.7; gsp ag: 2.0%[15.4 µM]; ClpP mod: -1.8%; Sfp inh: -3.4%

What do the screens show for `Cc1nn(C)c(C)c1S(=O)(=O)N(CC(=O)NCCN1CCOCC1)c1ccc(C(C)C)cc1`?
D2 PAM: -2.3; gsp antag: 1.5%; Menin-MLL FL inh: 4.1; TRPV1 potentiator: 11.4; gsp ag: 29.5%; ClpP mod: 1.2%; Sfp inh: 31.5%[activator]

Results for COc1ccc(CCN2CC(=O)NC(=O)C2)cc1OC ?
D2 PAM: 2.3; gsp ag: -64.7%[inhibitor]; ClpP mod: -1.0%

How did Cc1cccc(C(=O)Nc2ccccc2-c2nnn(CC(=O)Nc3ccc4c(c3)OCCO4)n2)c1 do in these assays?
D2 PAM: -0.1; gsp antag: 17.3%; Menin-MLL FL inh: 2.5; TRPV1 potentiator: -0.1; gsp ag: -31.3%[inhibitor]; ClpP mod: 3.2%; Sfp inh: -18.9%

How did Cc1ccc(C)c(N(C)C(=O)CCS(=O)(=O)c2cccc3nonc23)c1 do in these assays?
D2 PAM: -5.0; gsp antag: -0.7%; Menin-MLL FL inh: -2.5; TRPV1 potentiator: -15.4; gsp ag: -0.2%[15.4 µM]; Sfp inh: -2.7%

Results for C=CCn1c(=O)c2ccccc2n2c(SCc3nc(N)nc(Nc4ccccc4C)n3)nnc12 ?
D2 PAM: -8.3; gsp antag: -1.1%; Menin-MLL FL inh: 7.6; TRPV1 potentiator: 1.9; gsp ag: inconclusive; ClpP mod: 0.0%; Sfp inh: -10.8%

What do the screens show for `CNC(=O)CN(C1CCCCC1)S(=O)(=O)c1ccc(OC)c(Cl)c1`?
D2 PAM: 6.3; gsp antag: 5.8%; Menin-MLL FL inh: 0.2; TRPV1 potentiator: 0.5; gsp ag: 0.9%; ClpP mod: 0.8%; Sfp inh: 5.1%

What do the screens show for `O=[N+]([O-])c1ccc(CSc2ncnc3c2ncn3[C@@H]2O[C@H](CO)[C@@H](O)[C@H]2O)cc1`?
D2 PAM: 9.2; gsp antag: 0.8%; TRPV1 potentiator: 4.3; ClpP mod: -3.3%

Results for C=C1CC(C(=O)N/N=C/c2ccccc2)C1 ?
D2 PAM: -8.8; gsp antag: 10.0%; Menin-MLL FL inh: -1.7; TRPV1 potentiator: -4.8; gsp ag: 0.0%; ClpP mod: 3.7%; Sfp inh: -10.5%
